# Marburg entry inh = qHTS for inhibitors of binding or entry into cells for Marburg Virus. Potency, µM (highest dose often 37.8 µM), for inactives: at the top dose activity change, negative = inhibition, hits mostly inhibitors. Marburg virus pseudotyped entry inhibition, cell reporter; control for the full effect not named in the record; about a third of the inactives were read at about 46 µM. AID 540276, 2011. hit rate 1.8% among 300,000; active = well fitted inhibition curve with a large enough effect; inconclusive = small, poorly fitted or top-dose-only effect, or effect the other way; inactive = flat fitted curve, though single readings scatter; tested in HEK293 cells; about a fifth of its hits are not listed in these tables; further: on the % scale 0 is the no-effect control and ±100 the full control effect; luciferase read-out
# Lassa entry inh = qHTS for Inhibitors of binding or entry into cells for Lassa Virus; Lassa virus pseudotype entry inhibition, cell reporter; control for the full effect not named in the record; hit rate 1.2% among 300,000; Potency, µM (highest dose often 37.9 µM), inactives show at the highest dose activity change, negative = inhibition, usual class: inhibitors; active means well fitted inhibition curve with a large enough effect; inconclusive means small, poorly fitted or top-dose-only effect, or effect the other way; inactive means flat fitted curve, though single readings scatter; tested in HEK293 cells; further: on the % scale 0 is the no-effect control and ±100 the full control effect; nearly all actives have a fitted effect of over 50% in size; luciferase read-out
# StopGo reporter = High Throughput Screening for Foot and Mouth Disease Virus Antivirals; human cells with a luciferase reporter of 2A StopGo recoding; control for the full effect not named in the record; Potency, µM (doses to about 57.9 µM), without a hit: at the highest dose signal change, negative = less light; hit rate 1.2% among 410,000; AID 1159524, 2015; active = well fitted falling curve with a large enough effect; inconclusive = small, poorly fitted or top-dose-only effect; inactive = no such curve, though single readings can be large or run the other way; tested in HEK293T cells; further: on the % scale 0 is the no-effect control and ±100 the full control effect; nearly all actives have a fitted effect of over 45% in size; luciferase light after 4 h
# SARS PLP yeast = qHTS of Yeast-based Assay for SARS-CoV PLP; S. cerevisiae expressing SARS-CoV PLpro, growth rescue; control for the full effect not named in the record; Potency, µM (series often up to 32.9 µM), for the others: top-dose activity, positive = growth rescue; hit rate 0.19% among 330,000; AID 485353, 2010; active means well fitted rising curve with a large enough effect; inconclusive means small, poorly fitted or top-dose-only effect; inactive means no such curve, though single readings can be large or run the other way; further: 0% is about no effect; nearly all actives have a fitted effect of over 55% in size; growth read by luminescence after 48 h
# Cruzain Triton = qHTS Assay for Promiscuous and Specific Inhibitors of Cruzain (with detergent); purified cruzain, Z-FR-AMC fluorescence, 0.01% Triton; Cruzipain (Trypanosoma cruzi), P25779; Potency, µM, for the others: max response, negative = inhibition, actives largely listed as inhibitors; hit rate 0.43% among 200,000;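 further: plate controls were neutral wells for no effect and buffer without enzyme for full effect; nearly all actives have a fitted effect of over 40% in size; top concentration of the series not given in the record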
# Target sequence (P25779 123-467 limits assumed): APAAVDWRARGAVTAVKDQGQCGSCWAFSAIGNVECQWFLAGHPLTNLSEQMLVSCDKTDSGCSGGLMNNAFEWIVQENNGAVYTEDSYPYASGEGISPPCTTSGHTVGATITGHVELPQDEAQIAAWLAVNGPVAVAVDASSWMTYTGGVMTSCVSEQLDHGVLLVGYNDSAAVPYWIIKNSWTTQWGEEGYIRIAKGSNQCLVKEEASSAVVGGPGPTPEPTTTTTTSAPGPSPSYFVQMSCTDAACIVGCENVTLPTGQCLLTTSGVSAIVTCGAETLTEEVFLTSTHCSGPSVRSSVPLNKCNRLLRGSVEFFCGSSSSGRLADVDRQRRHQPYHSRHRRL
#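 Purified cruzain (1.5 nM final) was preincubated with compounds for 15 min at room temperature in 100 mM sodium acetate pH 5.5, 5 mM DTT, 0.01% Triton X-100. Reaction started with 2 uM Z-FR-AMC; AMC fluorescence change over 60 s gave activity.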
# Cruzain noTriton = qHTS Assay for Promiscuous and Specific Inhibitors of Cruzain (without detergent). Cruzipain (Trypanosoma cruzi), P25779. purified cruzain, Z-FR-AMC fluorescence, no detergent. AID 1476, 2009. hit rate 2.3% among 200,000. Potency, µM, for inactives: max response, negative = inhibition, actives largely listed as inhibitors;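 further: plate controls were enzyme without inhibitor for no effect and buffer without enzyme for full effect; nearly all actives have a fitted effect of over 40% in size; top concentration of the series not given in the record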
#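 Purified cruzain at 1.5 nM, pre-incubated 15 min with compound at room temperature in 100 mM sodium acetate pH 5.5, 5 mM DTT, 0.00005% Triton X-100. Reaction started with 2 uM Z-FR-AMC; AMC fluorescence increase over 60 s gives rate.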
# RE007 growth inh = qHTS Assay for Inhibitors of the HIV-1 protein Vpr | S. pombe RE007 Vpr strain, BacTiter-Glo ATP luminescence, 24 h; control for the full effect not named in the record | Potency, µM (series often up to 92.2 µM), without a hit: at the top dose activity change, negative = less growth | hit rate 0.21% among 360,000; active = well fitted falling curve with a large enough effect; inconclusive = small, poorly fitted or top-dose-only effect; inactive = no such curve, though single readings can be large or run the other way;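 further: on the % scale 0 is the no-effect control and ±100 the full control effect; nearly all actives have a fitted effect of over 50% in size; the assay follows cell death caused by Vpr and the record does not say whether a fall means rescue or toxicity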
#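 Fission yeast strain RE007, carrying one chromosomally integrated HIV-1 vpr copy, was seeded at OD 0.01 in PMG+AL medium with 23 nL pinned compound. After 24 h at 30 °C and 99% humidity, viability was read by BacTiter-Glo luminescence.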
# NS1 inh = qHTS Assay for Inhibitors of Influenza NS1 Protein Function; S. cerevisiae slowed by influenza A NS1, growth recovery by OD600; Potency, µM (doses to about 46.1 µM), without a hit: at the top dose activity, positive = more growth; hit rate 0.4% among 270,000; AID 2326, 2010; active means well fitted rising curve with a large enough effect; inconclusive means small, poorly fitted or top-dose-only effect; inactive means no such curve, though single readings can be large or run the other way; further: nearly all actives have a fitted effect of over 50% in size
#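 A cell-based growth assay was used: compounds that relieve NS1-induced slow growth of budding yeast raise OD600. Assay medium was yeast nitrogen base with ammonium sulphate and -URA supplement, pH 6.0, with 2% galactose.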
# Starred values were filed as active, the others as inactive; u = inconclusive; x = not tested or not shown; & = joins results of further samples; [ ] = another dose, or the depositor's remark. Unless noted, the call rests on the fitted dose curve; in most records, active means well fitted curve in the direction sought with a large enough effect; inconclusive means small, poorly fitted or top-dose-only effect, or another doubt; inactive means no such curve, though single readings can be large; an effect the other way counts as inactive or inconclusive. Potency means the concentration at half of the fitted maximal effect.
# Below each SMILES: Marburg entry inh	Lassa entry inh	StopGo reporter	SARS PLP yeast	Cruzain Triton	Cruzain noTriton	RE007 growth inh	NS1 inh
- Cc1ccc(S(=O)(=O)NNC(=S)NC(=O)c2ccc([N+](=O)[O-])cc2)cc1
    13%	20%	-6%	10%	u	4µM*	27%	7%
- COc1ccc(N2CCN(C(=O)Cc3ncc(C(F)(F)F)cc3Cl)CC2)cc1
    6%	0%	-29%	-3%	-3.9%	1%	u	14%
- Cc1cc(NC2CCCC2)n2ncc(-c3ccccc3)c2n1
    u	u	40µM*	-7%	x	x	-13%	-7%
- Cc1ccc(C(=O)Nc2cccnc2)cc1S(=O)(=O)N1CCOCC1
    -6%	5%	11%	9%	4.4%	-5%	12%	-2%
- CCOC(=O)c1c(NC(=O)c2cc(-c3cccc(O)c3)on2)sc(C(C)=O)c1C
    40%	1%	0%	7%	-0.6%	u	-3%	3%
- Cc1nnc(NC(=O)CSc2nnc(Cc3cccn3C)n2-c2ccccc2)s1
    x	x	2%	1%	-3.4%	0%	-16%	17%
- CC1=Nc2cc(C(=O)NCCc3ccccc3)ccc2Sc2c(C)ccc(C)c21
    u	-28%[46.1 µM]	-21%	x	-3.9%	u	x	x
- Cc1ccc(NC(=O)CSc2nnc(-c3ccco3)o2)c(C)c1
    -2%	1%	7%	0%	x	x	-6%	-6%
- CCOc1ccc(CNC(=O)C2CCCN(c3nnc(C)c4c(C)n(-c5ccccc5)nc34)C2)cc1 (stereo not drawn)
    x	16%[46.1 µM]	11%&10%	11%	-6.2%	9%	-4%	7%
- CCOC(=O)N1CCN(C2CCCN(C(=O)c3ccccc3C(F)(F)F)C2)CC1 (stereo not drawn)
    -2%	3%	-1%	-2%	x	x	0%	18%
- Cc1sc2ncnc(N[C@@H](CCC(=O)O)C(=O)O)c2c1C
    19%	10%	2%	-1%	-0.1%	-2%	-10%	-6%
- CCCc1nc2c(=O)[nH]c3ccccc3c2o1
    10%[46.1 µM]	8%	19%	14%	-0.5%	-1%	23%	-3%
- O=C(O)c1cnn2c1C(=O)N(Cc1cccs1)CC2
    22%[46.1 µM]	-4%	-10%	2%	x	x	1%	4%
- CC(=O)NC1CC2CCCC(C1)N2 (stereo not drawn)
    7%	u	-1%	-1%	5.1%	-2%	-11%	1%
- Cc1ccc(NC(=O)CCC(=O)NNC(=S)Nc2ccc(F)cc2)c(C)c1
    27%[46.1 µM]	3%[46.1 µM]	10%	-3%	x	x	9%	18%
- COc1cc(OC)cc(C(=O)N/N=C/c2ccc(OC)c(COc3ccc(F)cc3)c2)c1
    u	u	-9%	0%	-5.9%	-23%	-11%	6%
- Cc1ccc(NC(=O)CNc2cccc(C)c2C)c(C)c1
    6%	29%	16%	-9%	-0.3%	-10%	-4%	-2%
- CC(OC(=O)CCN=C1NS(=O)(=O)c2ccccc21)C(=O)Nc1ccc(F)cc1 (stereo not drawn)
    u	5%	-20%	3%	x	x	-3%	x
- O=C(Nc1c(C(=O)N2CCN(c3ccccc3F)CC2)oc2ccccc12)c1ccccc1F
    x	-6%[46.1 µM]	-1%	x	-4.8%	20µM*	x	x
- N#C/C(=C\c1ccncc1)c1nc2ccccc2[nH]1
    1%[46.1 µM]	-14%[46.1 µM]	14%	-2%	x	x	-6%	x

# Continued:
# Below each SMILES: Marburg entry inh	Lassa entry inh	StopGo reporter	SARS PLP yeast	Cruzain Triton	Cruzain noTriton	RE007 growth inh	NS1 inh
- COc1ccc2c(Cl)c(C(=O)NCCc3ccc(S(N)(=O)=O)cc3)sc2c1
    -5%	u	10%	4%	x	x	-13%	5%
- CCOc1ccccc1NC(=O)C1CCCN(C(=O)Nc2ccccc2)C1 (stereo not drawn)
    0%	-1%	-3%	8%	0.4%	1%	-14%	-4%
- CCc1ccccc1NC(=S)/N=C(\N)Nc1nc(C)c2cc(C)ccc2n1
    u	u	-9%	16%	0.3%	-77%	8%	u
- CCOC(=O)c1c(C)[nH]c(NC(=O)Nc2c(C)n(C)n(-c3ccccc3)c2=O)c1C
    15%	-5%	16%	-17%	-1.1%	-8%	5%	-3%
- Cc1ccc2c(c1)-c1c(cnn1CC(=O)Nc1ccccc1C#N)CO2
    -23%[46.1 µM]	x	-21%	x	-0.6%	u	x	x
- O=C(CCCCCNC(=O)N1CCn2c1nc1ccccc12)NCCc1ccccc1
    x	x	0%	-2%	x	x	10%	-20%
- COc1ccc(-c2noc(N3CCC(C(=O)Nc4ccc(OC)cc4OC)CC3)n2)cc1
    x	x	-8%	-6%	x	x	-2%	4%
- CCOC(=O)c1nn(-c2ccccc2F)c2nc(Nc3ccccc3)cc(=O)n12
    10%	-5%	-25%	20%	-0.3%	-9%	17%	-2%
- Cc1cccc(NC(=O)C2CCCN2C(=O)NC2CCCCC2)c1 (stereo not drawn)
    x	x	9%	1%	x	x	-6%	1%
- Cc1ccc(N2CC(C(=O)OCC(=O)C(C)(C)C)CC2=O)cc1 (stereo not drawn)
    -16%	12%	11%	8%	-1.1%	2%	12%	-18%
- COCCN1C(=S)NC(c2cccc(C(F)(F)F)c2)C(C(=O)N2CCOCC2)=C1C (stereo not drawn)
    1%[46.1 µM]	u	25%	0%	x	x	3%	3%
- COc1ccc(NC(=O)c2cc(-c3ccccn3)nc3ccccc23)c(OC)c1
    u	u	-26%	-4%	x	x	-3%	x
- COc1ccc(C(=O)COc2ccccc2C#N)cc1
    6%	0%	42%[activator]	-5%	x	x	15%	-34%
- COc1ccc(Nc2cnn(-c3nc4ccccc4s3)c(=O)c2Cl)cc1
    u	-29%	21%	-76%	-12%	-5%	u	-28%
- CCc1nn(C(CC)C(=O)NCc2cccc(OC)c2OC)c(=O)c2cc3occc3n12 (stereo not drawn)
    x	x	1%	19%	x	x	4%	-2%
- Cc1ccccc1OCCC(=O)Nc1ccc(Cl)cc1F
    16%	2%	-2%	-35%	-8.1%	-6%	5%	-32%
- Cc1cc(C)c(NS(=O)(=O)c2ccc3c(c2)NC(=O)CCS3)c(C)c1
    x	-5%[46.1 µM]	-12%&0%	0%	-5.6%	-6%	-1%	7%
- Cc1cc(C(F)F)n2ncc(C(=O)NCCc3ccc(Cl)cc3)c2n1
    -9%	-3%	-22%	-9%	-7.5%	-2%	7%	-12%
- CCOc1ccc(CNC(=O)c2cnc3c(C)cccn3c2=O)cc1
    x	-9%[46.1 µM]	-10%	x	2.4%	7%	x	x
- O=C(Nc1ccccc1C(F)(F)F)c1cc(-c2cccc(O)c2)on1
    25%	1%	11%	-6%	0.6%	u	15%	-2%

# Further results
# Below each SMILES: Marburg entry inh	Lassa entry inh	StopGo reporter	SARS PLP yeast	Cruzain Triton	Cruzain noTriton	RE007 growth inh	NS1 inh
- COc1ccc(-c2nc(-c3ccc4c(c3)OCO4)[nH]c2-c2ccc(OC)cc2)cc1
    u	u	u	-67%	4.0%	-4%	-28%	x
- Cc1c(NC(=O)Nc2ccccc2C(F)(F)F)c(=O)n(-c2ccccc2)n1C
    -1%&8%[46.1 µM]	-1%&28%[46.1 µM]	u	0%	1.1%	-10%	-3%	-3%
- CC1CCN(c2ccc(-c3nc(-c4ccccc4)no3)cc2[N+](=O)[O-])CC1
    u	x	5%	x	0.0%	5%	x	x
- COCCNC(=O)/C(C#N)=C\c1ccc(CNS(=O)(=O)c2ccc(C)cc2)o1
    x	x	0%	1%	x	x	-3%	2%
- CCCCOP(=O)(OCCCC)/C(C#N)=C(/C)O
    0%	17%	0%	2%	-3.0%	5%	-15%	5%
- CCOc1ccc2nc(C(=O)N3CCCC(C)C3)sc2c1 (stereo not drawn)
    u	u	-18%	-20%	-7.8%	-3%	u	-14%
- Cc1c(C(=O)Nc2ccc3c(c2)CCC3)cccc1[N+](=O)[O-]
    13%	u	25%	-14%	-6.3%	-5%	-18%	2%
- COc1ccc(N2CCN(C(=O)c3ccc(CS(=O)(=O)c4ccc(OC)cc4)o3)CC2)cc1
    x	x	u	5%	-4.8%	20%	-5%	-29%
- O=C(CSc1nnnn1-c1ccc(O)cc1)NC1CCCCC1
    13%[46.1 µM]	3%	1%	2%	x	x	3%	1%

# Of the compounds above, these have a Cl atom.
# Below each SMILES: Marburg entry inh	Lassa entry inh	StopGo reporter	SARS PLP yeast	Cruzain Triton	Cruzain noTriton	RE007 growth inh	NS1 inh
- COc1ccc(N2CCN(C(=O)Cc3ncc(C(F)(F)F)cc3Cl)CC2)cc1
    6%	0%	-29%	-3%	-3.9%	1%	u	14%
- COc1ccc2c(Cl)c(C(=O)NCCc3ccc(S(N)(=O)=O)cc3)sc2c1
    -5%	u	10%	4%	x	x	-13%	5%
- COc1ccc(Nc2cnn(-c3nc4ccccc4s3)c(=O)c2Cl)cc1
    u	-29%	21%	-76%	-12%	-5%	u	-28%
- Cc1ccccc1OCCC(=O)Nc1ccc(Cl)cc1F
    16%	2%	-2%	-35%	-8.1%	-6%	5%	-32%
- Cc1cc(C(F)F)n2ncc(C(=O)NCCc3ccc(Cl)cc3)c2n1
    -9%	-3%	-22%	-9%	-7.5%	-2%	7%	-12%

# Looked up above.
# Cruzain Triton, COc1ccc(N2CCN(C(=O)c3ccc(CS(=O)(=O)c4ccc(OC)cc4)o3)CC2)cc1 is entered as -4.8%
# SARS PLP yeast, COc1ccc(-c2nc(-c3ccc4c(c3)OCO4)[nH]c2-c2ccc(OC)cc2)cc1 is entered as -67%

# Assay outcomes: PubChem BioAssay, National Center for Advancing Translational Sciences (NCATS)
